Bioassay records deposited in PubChem by ICCB-Longwood Screening Facility, Harvard Medical School.
HCMV NEC inh = inhibitors of HCMV UL50-UL53 interaction, biochemical, HTRF; 0.15% of 190,000 active; AID 1918969, 2023; normalized percent inhibition; HCMV UL50-UL53 nuclear egress complex (human cytomegalovirus); inhibition, % (test concentration not listed);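 active means both replicates at 50% or more, plus weaker picks with an unusually low signal ratio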;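 further: stock transfer was 100 nL into about 20 µL; 0% = negative control wells and 100% = wells with untagged competitor protein; inactives centre near -12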
Starred values were filed as active, the others as inactive; & = joins results of further samples. The list is partial (hit frequency here may not be typical).

entry | mol | HCMV NEC inh
1 | Fc1ccccc1-c1cc(NCc2ccncc2)n2nccc2n1 | -25
2 | CCCC(=O)Nc1nc(-c2ccc(Cl)s2)cs1 | 5
3 | Cc1cnc(-c2cnc(NCCNc3ccc(C#N)cn3)nc2-c2ccc(Cl)cc2Cl)[nH]1 | 19
4 | C[C@@H]1C(=O)OC2[C@H](O)C34[C@H]5C[C@@H](C(C)(C)C)[C@]36[C@@H](OC(=O)[C@@H]6O)O[C@@]4(C(=O)O5)[C@]21O (some centres not stated) | 3
5 | CCN(c1cccc(C)c1)c1ncnc2nc[nH]c12 | -17
6 | CC(C)Sc1nnc(NC(=O)c2ccccc2C(F)(F)F)s1 | -20
7 | N=C1Cc2ccccc2N1CC(=O)c1ccc(Br)cc1 | -11
8 | COc1ccc(-c2nc(N3CCOCC3)c3sc(CN(C)c4ncc(C(=O)NO)cn4)cc3n2)cn1 | -27
9 | CC(C)(C)c1ccc(C(=O)Nc2sccc2C(N)=O)cc1 | -4
10 | O=c1[nH]c2ccc(Br)cc2c(-c2ccccc2)c1N1CCCCC1 | -13

entry | mol | HCMV NEC inh
11 | COc1ccc(NS(=O)(=O)N2CCCCC2)cc1 | -4
12 | COc1cc(N2CCC(N)CC2)ccc1Nc1ncc(Cl)c(-c2c[nH]c3ccccc23)n1 | -8
13 | CCn1nc(C(=O)N(C)Cc2ccco2)c2c1CCC(N(C)Cc1ccon1)C2 (configuration not stated) | 0
14 | CC(C)(O)c1cn(C2CCN(C(=O)C3CC34CCCC4)CC2)nn1 (configuration not stated) | -22
15 | COc1cc(CN2CCc3c(cc(Cc4ccccc4C)c(=O)n3CC3CC3)C2)ccc1O | -6
16 | COC(=O)C1=C(NC(=O)c2ccccc2)CCS1 | -26
17 | OC(COc1ccc2c(c1)OCO2)CN1CCCCCC1 (configuration not stated) | -17
18 | O=C(Nc1ccc(F)cc1)c1cc2cc(Cl)cc(Cl)c2oc1=O | -13
19 | CC(=O)OC1CC2CCC1(C)C2(C)C (configuration not stated) | -1
20 | CCOC(=O)CSc1nnc(NC(=O)C(C)C)s1 | -6

entry | mol | HCMV NEC inh
21 | O=c1/c(=C\c2cccc(Cl)c2)sc2nc(-c3cccs3)nn12 | -8
22 | Cc1csc(-c2cc(C(=O)NCCN3CCCCC3)cc(S(=O)(=O)N3CCOCC3)c2)c1 | -8
23 | c1ccc(-c2csc3ncnc(NCCCN4CCOCC4)c23)cc1 | -3
24 | CCCCCCCCCCCCCCCCCC(=O)NCCS(=O)(=O)O | -21&-21
25 | CC(=O)C1CC[C@H]2[C@@H]3CC=C4CC(O)CC[C@]4(C)[C@@H]3CC[C@]12C (some centres not stated) | 8
26 | COc1ccc(OC(=O)c2cc3ccccc3oc2=O)cc1 | -19
27 | COC(=O)Cn1c(=O)oc2ccccc21 | 12&5
28 | CCc1cc2c(=O)c(-c3cnn(-c4ccccc4)c3)c(C)oc2cc1O | -2
29 | N#CC1(c2ccc(NC(=O)c3cccnc3NCc3ccncc3)cc2)CCCC1 | 0
30 | CCc1cc2c(SCC(=O)c3ccccc3)ncnc2s1 | -6

Some values from the list:
compound 3 @ HCMV NEC inh = 19
compound 21 @ HCMV NEC inh = -8
compound 7 @ HCMV NEC inh = -11
compound 5 @ HCMV NEC inh = -17

Remaining list, next part.
entry | mol | HCMV NEC inh
31 | Cn1nc(C(F)(F)F)c2cc(NC(=O)OCC(C)(C)C)sc21 | -5
32 | NC(=O)C1CCCN1C(=O)C(Cc1cnc[nH]1)NC(=O)C1CCC(=O)N1 (configuration not stated) | -21
33 | COc1ccc(-c2[nH]ncc2-c2cnc(C)s2)c(O)c1 | -14
34 | Cc1ccn2cc(Cn3cnc4ccc(F)cc4c3=O)nc2c1 | -1
35 | COC(=O)COc1ccccc1C#N | -2
36 | O=C(Cc1cccc2ccccc12)Nc1nnc(-c2ccccc2)s1 | -25
37 | O=C(CSc1ncnc2c1oc1ccccc12)NCc1ccccc1 | 6
38 | O=c1oc2ccccc2n1CCCOc1ccccc1 | -4
39 | COC(=O)c1ccccc1NC(=O)/C=C/c1ccc(-c2ccccc2)o1 | -15
40 | O=C1/C(=C/c2cccc(O)c2)SC(=S)N1c1ccccc1O | 7

Four of the compounds above, as labelled records.
35) COC(=O)COc1ccccc1C#N
- HCMV NEC inh: -2
37) O=C(CSc1ncnc2c1oc1ccccc12)NCc1ccccc1
- HCMV NEC inh: 6
36) O=C(Cc1cccc2ccccc12)Nc1nnc(-c2ccccc2)s1
- HCMV NEC inh: -25
39) COC(=O)c1ccccc1NC(=O)/C=C/c1ccc(-c2ccccc2)o1
- HCMV NEC inh: -15

Following part.
entry | mol | HCMV NEC inh
41 | N#C/C(=C\Nc1cccc(C(F)(F)F)c1)c1ccc(Cl)cc1 | 4
42 | CC(=O)N1CC(=O)Nc2ccccc21 | 8
43 | O=C(Nc1ccccc1)C(/C=N/O)C(=O)Nc1ccccc1 | -11
44 | CCCCCCCCCCCCCCC[C@@H](O)[C@H](CO)NC(C)=O | -7
45 | N#C/C(=C/c1ccc(O)c(O)c1)C(=O)OC/C=C/c1ccccc1 | -4
46 | O=C1C(=O)N(CCN2CCOCC2)C(c2ccccc2F)/C1=C(\O)c1ccccc1 (configuration not stated) | -11
47 | CCCCC/C=C\CCCCCCCCCCCCC(=O)O | 2&2
48 | Cc1cc(C)cc(-n2ccnc2SCC(=O)NC2CCCCC2)c1 | -13
49 | CSc1nc2c([nH]c3ccccc32)c(=O)n1-c1ccccc1 | 5
50 | O=C1C(Cl)=C(NCCN2CCOCC2)C(=O)c2ncccc21 | 77

A draw from above in order of count of non-hydrogen atoms, low to high.
entry | mol | HCMV NEC inh
47 | CCCCC/C=C\CCCCCCCCCCCCC(=O)O | 2&2
44 | CCCCCCCCCCCCCCC[C@@H](O)[C@H](CO)NC(C)=O | -7
46 | O=C1C(=O)N(CCN2CCOCC2)C(c2ccccc2F)/C1=C(\O)c1ccccc1 (configuration not stated) | -11

Next structures
entry | mol | HCMV NEC inh
51 | C=CCSc1nnc(NC(=O)C2C(C=C(Cl)Cl)C2(C)C)s1 (configuration not stated) | -1
52 | O=c1nc(-c2ccc(Cl)cc2)c2ccccc2[nH]1 | -13
53 | CN(C)Cc1cn(CC2CCN(C(=O)CC3CCCCCC3)CC2)nn1 | -21
54 | O=C(N[C@H]1C[C@H]2C(=O)N3CCC[C@H]3C(=O)N2C1)c1cccnc1Oc1ccc(Cl)cc1 | -6
55 | COc1ccc(-c2cnc[nH]2)cc1 | -3
56 | CC(C)(C)c1ccccc1OCC(O)CN1CCN(Cc2ccc3c(c2)OCO3)CC1 (configuration not stated) | 6&-6
57 | CC(C)n1c2ccccc2c2nc3ccccc3nc21 | 1
58 | NCCC(=O)NCCc1cnc[nH]1 | -10
59 | COc1cccc(Cc2noc(-c3nccc4ccccc34)n2)c1 | -23&-23
60 | COc1ccccc1NC(=O)c1ccc(S(=O)(=O)N2CCCC2)cc1 | -9

entry | mol | HCMV NEC inh
61 | Cn1c(SCc2ccc(C(F)(F)F)cc2)nnc1-c1ccc(OCC(F)(F)F)nc1 | -17
62 | Cc1ccc(S(=O)(=O)NCc2nc3ccccc3[nH]2)cc1 | -13
63 | CCCCCCCC/C=C\CCCCCCCC(=O)Nc1c(C(C)C)cccc1C(C)C | 13&13
64 | O=C1Nc2ccccc2/C1=C/C(=O)c1ccccc1 | -4
65 | CC(=O)Nc1ccc2c(c1)sc(=NC(=O)c1ccc(Br)s1)n2C | -1&-3
66 | C=CCSc1nnc(-c2c[nH]c3ccccc23)n1C | 6
67 | CCS(=O)(=O)N1CCC[C@@H]2CN3CCc4cc(OC)ccc4[C@@H]3C[C@@H]21 | 5
68 | O=C1CC(Sc2ccccc2C(=O)O)C(=O)N1 (configuration not stated) | -3
69 | CC(C)CC(=O)Nc1nc(-c2ccc(F)cc2)cs1 | -3
70 | COC(=O)c1ccc(-c2cnco2)cc1 | -24

entry | mol | HCMV NEC inh
71 | O=C1CCCC2=C1C(c1ccccc1Cl)C1=C(CCCC1=O)O2 | -6
72 | CS(=O)(=O)Nc1ccc(C(=O)O)cc1 | -36
73 | CC(CNC1CCCCC1)OC(=O)c1ccccc1 (configuration not stated) | -7
74 | Cc1ccc(S(=O)(=O)c2cc(C)ccc2C)cc1 | -18
75 | CCOC(=O)c1cc2ccccc2c(=O)s1 | -33
76 | COc1ccccc1Oc1ccc(S(=O)(=O)Nc2cccnc2)cc1 | 0
77 | O=C(c1ccc(-c2ccccc2Cl)o1)N1CCOCC1 | -35
78 | O=C(Oc1cc(S(=O)(=O)c2ccccc2)ccc1[N+](=O)[O-])c1ccc(Cl)cc1 | -49
79 | COc1ccc2c(c1)sc(=NC(=O)CSCC(=O)N1CCCc3ccccc31)n2C | -5
80 | O=C(CN1C(=O)/C(=C/c2ccccc2)SC1=S)NC1CCCCC1 | -8

entry | mol | HCMV NEC inh
81 | CCOc1cc(C2CC(=O)NC(SCc3ccccc3)=C2C#N)ccc1O (configuration not stated) | -21
82 | COc1ccc(-c2[nH]ncc2CN2CCC3(CC2)C(=O)N(C(C)C)C(=O)N3CCC(C)C)cc1 | -3
83 | O=C(CN1C(=O)/C(=C\c2cccs2)SC1=S)Nc1ccc2c(c1)OCO2 | 8&-12
84 | Cc1nnc(C(C)C)n1C1CC2CCC(C1)N2CCC(NC(=O)C1CCC(F)(F)CC1)c1ccccc1 (configuration not stated) | 10&-18
85 | CSc1cccc(N=Cc2oc(O)c3ccccc23)c1 | -12
86 | CCS(=O)(=O)c1ccc(O)c(N2C(=O)C3C4C=CC(C4)C3C2=O)c1 (configuration not stated) | 3
87 | Clc1ccc(Cn2ccc3ccccc32)cn1 | -6
88 | CCCCCCCCCCCCCCCCOC[C@H](CO)OC | -11&-11
89 | CCCc1cc2c(-c3ccccc3)cc(=O)oc2cc1OC(C)=O | -14
90 | COc1ccc(-c2nnc(NC(C)=O)o2)cc1 | -12

entry | mol | HCMV NEC inh
91 | Cc1ccc(NC(=S)/N=C(\N)COc2ccccc2)cc1 | -9
92 | COc1ccc(C2=C(C#N)C(=O)OC2)cc1 | -65
93 | Cc1sc2ncnc(-n3nnc4ccccc43)c2c1C | -4
94 | CCN(CC)Cc1ccc2cc(COC(=O)Nc3ccc(C(=O)NO)cc3)ccc2c1 | -75
95 | CN(Cc1ccccc1)C(=O)[C@H](Cc1ccc2ccccc2c1)NC(=O)[C@@H]1CCCN1C(=O)Nc1ccccc1[N+](=O)[O-] | -8
96 | CCN1CCN(Cc2ccc(NC(=O)c3ccc(C)c(NC(=O)c4cccc5[nH]ccc45)c3)cc2C(F)(F)F)CC1 | -11
97 | CC(=O)Nc1cccc(NC(=O)c2cccnc2)c1 | -14
98 | O=C1c2ccccc2OCC1(CO)CO | -9
99 | COC(CNC(=O)C1CCC(=O)N1Cc1ccc(F)cc1)OC (configuration not stated) | 4
100 | Fc1ccc(-c2nc3n(c2-c2ccncc2)CCS3)cc1 | -5&-1

Reprinted from the part before: 7 entries, then new ones.
entry | mol | HCMV NEC inh
94 | CCN(CC)Cc1ccc2cc(COC(=O)Nc3ccc(C(=O)NO)cc3)ccc2c1 | -75
95 | CN(Cc1ccccc1)C(=O)[C@H](Cc1ccc2ccccc2c1)NC(=O)[C@@H]1CCCN1C(=O)Nc1ccccc1[N+](=O)[O-] | -8
96 | CCN1CCN(Cc2ccc(NC(=O)c3ccc(C)c(NC(=O)c4cccc5[nH]ccc45)c3)cc2C(F)(F)F)CC1 | -11
97 | CC(=O)Nc1cccc(NC(=O)c2cccnc2)c1 | -14
98 | O=C1c2ccccc2OCC1(CO)CO | -9
99 | COC(CNC(=O)C1CCC(=O)N1Cc1ccc(F)cc1)OC (configuration not stated) | 4
100 | Fc1ccc(-c2nc3n(c2-c2ccncc2)CCS3)cc1 | -5&-1
101 | Oc1ccc(-c2n[nH]c(C(F)(F)F)c2-c2cnn(-c3ccccc3)c2)c(O)c1 | 10
102 | Cc1ccc2cc(CCNC(=O)c3ccccc3)c(=O)[nH]c2c1 | 8
103 | Cc1ccc(-c2csc(NC3OC(=O)c4ccccc43)n2)cc1 (configuration not stated) | -2
104 | Cc1ccc(NC(=O)CCc2ccc(C)o2)cc1 | -15
105 | Cc1ccc(-n2nc3c(c2NC(=O)C2CCCC2)CS(=O)C3)cc1 (configuration not stated) | -11
106 | O=C(O)c1cc2cccc([N+](=O)[O-])c2[nH]1 | -103
107 | O=c1c2ccccc2[nH]c(=S)n1CCN1CCC(=C(c2ccc(F)cc2)c2ccc(F)cc2)CC1 | -12
108 | CCc1ccc(OCC(O)CN2CCCCC2)cc1 (configuration not stated) | -22
109 | CCCC(=O)N=c1sc2cc(Cl)ccc2n1CC | -5
110 | COc1cccc(-n2cc(-c3ccnc(N4CCCN(C(C)=O)CC4)n3)cn2)c1 | -10

entry | mol | HCMV NEC inh
111 | O=C(O)CSc1nc2ccccc2nc1SCC(=O)O | -23
112 | COc1ccc(-c2cn[nH]c2-c2ccc(OC)cc2)cc1 | -1
113 | CCS(=O)(=O)N(C)[C@H]1c2cc(C#N)ccc2OC(C)(C)[C@@H]1O (racemic) | -2
114 | Cc1ccc2cc(CCNC(=O)c3cc4ccccc4oc3=O)c(=O)[nH]c2c1C | -7
115 | COc1ccc2cc(CCNC(=O)COc3ccccc3)c(=O)[nH]c2c1 | 7
116 | CCOc1ccc(-c2nnc3ccc(SC)nn23)cc1 | -14
117 | CCCCC[C@H](O)/C=C/[C@@H]1[C@@H](C/C=C\CCCCOC)[C@@H](O)C[C@H]1O | -13&-13
